# RGS16-Gao HTS: modulates binding between human RGS16 and Galphao; bead-based flow cytometry RGS16-Galphao binding, fluorescence; actives lie on both sides; hit rate 0.38% among 220,000; binding response (% of control), % at 10 µM;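 active = below 25% or above 175%, edge rows of some plates excepted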;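 note: Galphao activated by GDP with aluminum fluoride before binding; 100% = wells without compound and 0% = beads without RGS; some results beyond the cut were filed as inactive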
# PKD1 kinase inh: blocks activity of human protein kinase D1 | PKD1 kinase fluorescence polarization assay | inhibition, %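 (about 10 µM by stock and volumes)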 | hit rate 0.056% among 200,000 | AID 797;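 active = inhibition of 50% or more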;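 note: controls were vehicle for no effect and a reference inhibitor for full effect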
# Target sequence (Q15139 whole entry, looked up): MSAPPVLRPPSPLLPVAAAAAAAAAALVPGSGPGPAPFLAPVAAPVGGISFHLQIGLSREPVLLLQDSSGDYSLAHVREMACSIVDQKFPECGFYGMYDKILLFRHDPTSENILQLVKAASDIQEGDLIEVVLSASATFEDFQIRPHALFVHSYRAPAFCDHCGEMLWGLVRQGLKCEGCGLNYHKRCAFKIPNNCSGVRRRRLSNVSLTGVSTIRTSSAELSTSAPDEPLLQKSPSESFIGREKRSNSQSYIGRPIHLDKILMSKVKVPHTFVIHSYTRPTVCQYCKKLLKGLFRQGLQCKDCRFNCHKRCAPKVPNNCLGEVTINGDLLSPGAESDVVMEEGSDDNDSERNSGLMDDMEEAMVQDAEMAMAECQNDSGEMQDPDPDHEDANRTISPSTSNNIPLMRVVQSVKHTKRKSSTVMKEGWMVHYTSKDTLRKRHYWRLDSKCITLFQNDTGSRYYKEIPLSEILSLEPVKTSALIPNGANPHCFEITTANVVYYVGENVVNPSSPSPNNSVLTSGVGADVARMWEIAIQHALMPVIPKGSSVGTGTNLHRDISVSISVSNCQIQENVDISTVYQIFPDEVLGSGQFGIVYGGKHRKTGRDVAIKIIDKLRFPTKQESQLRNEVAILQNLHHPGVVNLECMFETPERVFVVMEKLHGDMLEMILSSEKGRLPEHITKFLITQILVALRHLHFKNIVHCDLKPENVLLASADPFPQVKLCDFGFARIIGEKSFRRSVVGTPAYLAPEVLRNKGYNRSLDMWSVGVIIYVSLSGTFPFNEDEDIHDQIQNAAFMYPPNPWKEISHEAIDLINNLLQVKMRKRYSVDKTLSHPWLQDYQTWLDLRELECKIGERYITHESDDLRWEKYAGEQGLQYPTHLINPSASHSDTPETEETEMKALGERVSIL
# INS promoter inh: TRM-6 insulin promoter activity inhibition. hit rate 0.9% among 130,000. TRM-6 cells (human fetal islet line), insulin promoter-eGFP reporter, imaging; reporter expression induced with tamoxifen. inhibition, % at 2 µM;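 active = inhibition above the mean plus 3 SD, with well images judged a real hit on visual review, cut at about 60% in these data, passing the limit was not always enough; inconclusive = inhibition over the cutoff but images rejected on review; inactive = inhibition not above the cutoff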
# GALR2 agonist: GALR2 (human) receptor agonism; O43603; GALR2-expressing cells, agonist activation read-out; activation, %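 (tested at 5 µM)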; hit rate 0.48% among 140,000;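 active = above mean plus 3 SD of all compounds, about 5% in these data, not always enough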;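 note: 0% = vehicle buffer wells and 100% = reference agonist at full effect; tested in CHO reporter cells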
# HSV replic up: HSV replication enhancement | HSV replication augmentation in cells, fold increase | maximum fold increase | hit rate 0.005% among 220,000 | AID 1956;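 active = peak rise of 1.5-fold or more in the series; inconclusive = self-fluorescent or not available for retest; tested in PC3 cells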;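 note: first round at 10 µM; read as green reporter fluorescence; hits show the peak of a series up to 25 µM; 1 = signal of infected wells without compound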
# INS promoter inh cell count: recorded beside INS promoter inh, whose call it bears; normalized cell count, %; measured here: cell count, toxicity; reference of the scale not given here;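 cells exposed to compound for 48 h; stained nuclei by imaging scaled within each plate; lower means fewer cells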
# HSV replic up primary fold: second read-out of HSV replic up, no call of its own (marks repeat the call); fold increase; compound at 10 µM; measured here: primary screen fold increase 10 uM; tested in PC3 cells;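 GFP signal in the first replicate; 1 = infected wells without compound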
# * = called active by the depositor; i = inactive; ? = inconclusive; / = not tested or not shown.
SMILES,RGS16-Gao HTS,PKD1 kinase inh,INS promoter inh,INS promoter inh cell count,GALR2 agonist,HSV replic up,HSV replic up primary fold
COc1ccc(C2C(C(=O)OC(C)C)=C(C)N=c3s/c(=C\c4cccs4)c(=O)n32)cc1 (centres undefined),104,-11,19,165,-2.4,i,0.95
CCCOC(=O)c1ccc(NC(=O)CCC(=O)OCC)cc1,103,5,/,/,-0.8,i,1
Cc1cccc(NC(=O)c2nc[nH]c2C(=O)Nc2cccc(C)c2)c1,93,4,19,132,/,i,0.96
O=C1[C@@H]2[C@H](C(=O)N1n1cnnc1)[C@H]1C=C[C@@H]2C1,93,8,-91,132,-1.3,i,0.92
Cc1cc(C)nc(NS(=O)(=O)c2ccc(NC(=S)NC(=O)C(C)(C)C)cc2)n1,97,6,31,87,-2.0,i,1
COc1ccc(C(CC(=O)N2CCCCC2)c2c(OC)cc(OC)c3ccc(=O)oc23)cc1 (centres undefined),103,/,/,/,/,i,0.78
CC1SC2(NC1=O)C1CC3CC(C1)CC2C3 (centres undefined),98,8,13,113,/,i,1
Cc1cccc(NC(=O)C2CCCN(S(=O)(=O)c3cccc4nsnc34)C2)c1 (centres undefined),107,-8,0,100,-2.7,i,0.66
CC(=O)c1ccc(N2CCN(C(=O)Nc3ccc(C)cc3)CC2)cc1,96,-12,/,/,/,i,0.9
CCOc1c(CNCCN2CCOCC2)cccc1OC,101,0,-28,49,0.0,?,/
COc1cc(C(=O)N2CCN(C(=O)C3CC3)CC2)cc(OC)c1OC,100,-11,/,/,-1.2,i,0.8
O=C(/C=C/c1ccc(Cl)cc1Cl)Nc1ccc(CN2CCOCC2)cc1,99,6,/,/,0.9,i,0.89
Cc1cc(NC(=O)CSc2nnc(C3CC3)n2-c2ccccc2)no1,111,-8,/,/,/,i,1
Cc1cc(Cl)ccc1NC(=O)C1CCN(S(C)(=O)=O)CC1,98,-4,/,/,/,i,1
Cn1c(=O)[nH]c(=O)c2c1nc(NCc1ccco1)n2CCCc1ccccc1,107,-10,18,114,0.0,i,1.1
CN1CCCN(C(=O)c2ccc(Cl)c(S(=O)(=O)N(C)c3ccccc3)c2)CC1,95,3,/,/,-1.2,i,1.1
CCc1ccc(S(=O)(=O)Nc2ccc(-c3nc4cccnc4s3)cc2)s1,100,-12,/,/,2.5,i,1
CC1(C)CC(=O)c2sc(NC(=O)CN3CCOCC3)nc2C1,102,3,61,87,-0.8,i,0.91
CC1CCC2(CC1)NC(=O)N(CC(=O)Nc1nc(-c3ccc(F)cc3)cs1)C2=O (centres undefined),102,-10,2,125,-2.0,i,0.97
Cc1cc(C)cc(SCc2noc(C(=O)NCc3ccccc3)c2C(=O)NCc2ccccc2)c1,91,/,/,/,/,i,0.73
COc1ccc(CCN2CC(C(=O)O)CC2=O)cc1 (centres undefined),99,-4,3,97,-0.3,i,0.95
O=[N+]([O-])c1ccc(N2CCOCC2)cc1NCc1ccccc1,101,10,/,/,-2.9,i,0.78
COc1ccc(F)cc1S(=O)(=O)N1CCCCC1,105,/,/,/,/,i,1.1
COc1ccc(C(=O)/C(=C\N(C)C)n2nc(C)cc2C)cc1,102,6,/,/,/,i,0.98
CCCc1cc(=O)n2[nH]c(-c3ccc(OC)cc3)nc2n1,97,2,42,64,-1.9,i,0.95
O=C(c1ccco1)N1CCN(c2nc3ccsc3c(=O)s2)CC1,98,-1,/,/,-1.3,i,0.99
CCOC(=O)N1CCN(C(=O)CCn2c(=O)[nH]c3ccsc3c2=O)CC1,96,3,/,/,/,i,0.95
CN(C)CCCNC(=O)/C(=N\O)c1ccccc1,100,-6,13,81,-1.4,i,0.84
CCOc1ccc(-c2ccc(SCc3ccccn3)nn2)cc1,99,4,-9,133,/,i,0.76
Cc1ccc(C)c(/C(O)=C2\C(=O)C(=O)N(CCCN3CCOCC3)C2c2cccnc2)c1 (centres undefined),102,-4,47,77,0.4,i,0.96
COc1ccc(Oc2nccc(-c3ccc(F)cc3)c2C#N)cc1,100,-14,27,123,-1.4,i,0.84
CCC(Sc1nccn1C)C(=O)Nc1nnc(C)s1 (centres undefined),115,-3,/,/,-3.1,i,0.88
CCc1ccccc1NC(=O)N[C@@H](C)C(=O)O,103,13,/,/,-1.2,i,0.75
C#CC(C)(CC)NC(=O)c1cc2cccc(CC=C)c2oc1=O (centres undefined),63,9,-13,69,/,i,1
CCCCOc1ccc2c(C)cc(=O)oc2c1OCCCC,116,-3,7,118,-2.0,i,0.89
CN(Cc1ccccc1)C(=O)c1ccccc1C(=O)O,103,-2,/,/,/,i,0.88
Cc1nn(C)cc1CN(C)Cc1c(C(=O)N(C)Cc2ccccc2)nc2ccccn12,108,3,31,108,/,i,0.99
O=C(Nc1ccc2oc(=O)ccc2c1)c1cc2ccccc2o1,91,-5,31,157,-3.1,i,0.95
CN(C)S(=O)(=O)c1cccc(NC(=O)COC(=O)CCC(=O)c2ccc(F)cc2)c1,101,-4,-14,111,0.1,i,0.9
COc1cc(CNc2ccc(N3CCCC3)cc2)ccc1OCc1ccccc1,74,4,/,/,-1.9,i,0.91
Fc1ccc(NCc2ccccc2F)cc1Cl,98,-3,/,/,-0.5,i,0.92
COc1cccc2[nH]c(C(=O)NN)c(N)c12,104,/,/,/,/,i,1.2
CCCn1c(SC/C(O)=C(\C#N)c2nc3ccccc3[nH]2)n[nH]c1=O,106,3,-15,128,/,i,1
CCOC(=O)CC(N)c1ccc2c(c1)OCO2 (centres undefined),112,-2,0,134,-1.2,i,0.81
NC(=O)c1ccccc1N=Cc1ccccn1,91,-8,6,33,-1.5,i,0.96
COc1ccc([N+](=O)[O-])cc1NC(=O)Nc1ccccc1,93,-12,-7,116,-0.5,i,0.94
O=C(CN1CCN(c2ccccn2)CC1)N1CC(O)CO1 (centres undefined),101,5,39,111,/,i,1.3
Cc1nnc(NC(=O)c2c(F)c(F)c(F)c(F)c2F)s1,100,-7,-278,103,-2.5,i,0.69
C=CCn1c(-c2cccnc2Cl)nc2cc(Cl)c(Cl)cc21,101,-8,39,106,-0.6,i,1
NC(N)=N/N=C/c1cccc([N+](=O)[O-])c1O,98,-3,11,92,/,i,1.1
Cc1ccc(NC(=S)NCCN2CCOCC2)cc1C,103,-4,-3,74,-1.6,i,1.2
CC(C)Oc1cccc(C(=O)C2CCCN(C(=O)CCn3cnnn3)C2)c1 (centres undefined),97,-2,/,/,/,i,0.93
O=C(CCCCCn1c(=O)[nH]c2ccccc2c1=O)NCCc1c[nH]c2ccccc12,102,-3,8,94,-0.7,i,0.75
CC1(C)O[C@@H]1COc1c2ccoc2cc2oc(=O)ccc12,101,-15,-67,139,-0.9,i,0.8
S=C(NCCSCc1ccc(Cl)cc1)Nc1ccccc1,99,-2,/,/,-1.9,/,/
Cn1c(CN2CCN(C(=O)c3ccc(F)cc3)CC2)nc2cc([N+](=O)[O-])ccc21,120,-4,-2,78,0.3,i,1.1
CC1CCN(c2nc(N(C)c3ccccc3)nc(N)c2[N+](=O)[O-])CC1,110,/,/,/,/,i,1
O=C(COC(=O)c1ccc([N+](=O)[O-])o1)Nc1cccc(S(=O)(=O)N2CCOCC2)c1,100,-15,/,/,-1.4,i,1
Fc1ccc(CN2CCCN(Cc3nc(-c4ccc5c(c4)OCO5)no3)CC2)cc1,107,-4,/,/,/,i,0.99
O=C(CSc1nc2ccc([N+](=O)[O-])cc2[nH]1)NCCc1ccccc1,105,-17,-7,100,-0.6,i,1.2
# Carrying on:
SMILES,RGS16-Gao HTS,PKD1 kinase inh,INS promoter inh,INS promoter inh cell count,GALR2 agonist,HSV replic up,HSV replic up primary fold
N#Cc1ccccc1N=C1CCCN1Cc1ccccc1,103,0,/,/,-3.3,i,1
NC(=S)Nc1cccc(O)c1,98,/,/,/,/,i,0.97
N#Cc1c(-c2ccc(F)cc2)cc(C2CC2)nc1SCC(=O)c1cccs1,100,-5,/,/,-0.5,?,/
O=C(NNS(=O)(=O)c1ccc(F)cc1)c1ccc(S(=O)(=O)N2CCCCC2)cc1,112,3,-17,127,0.0,i,0.88
COc1ccc([N+](=O)[O-])c(OC)c1C(=O)Nc1ccc(F)cc1F,101,/,/,/,/,i,0.99
COc1ccc(C2CC(c3ccccc3)Nc3nc(NS(C)(=O)=O)nn32)cc1 (centres undefined),99,/,/,/,/,i,1.1
COCCn1c(SCC(=O)Nc2ccc(OC)c(S(N)(=O)=O)c2)nc2ccccc21,102,/,/,/,/,i,1.1
O=C(CN1C(=O)C2CCCCC2C1=O)Nc1nccs1 (centres undefined),105,1,-29,71,/,i,1.1
CCn1c(SCC(=O)NCCc2ccc(Cl)cc2)nnc1-c1cccs1,108,-9,44,91,-2.4,i,0.69
O=C(OCC(=O)N1CCc2ccccc21)C1=COCCO1,108,-3,-25,83,-0.2,i,0.73
Clc1nc(Cl)nc(-c2cn(-c3ccccc3)c3ccccc23)n1,95,/,/,/,/,i,0.99
CCOC(=O)c1sc2nc(CC(=O)OC)nc(NCCN3CCOCC3)c2c1C,123,-5,-8,160,1.8,i,0.89
CCOc1ccccc1NC(=O)C(=O)NCC1CCCN1CC (centres undefined),100,-1,12,103,-0.1,i,1
Cc1ccc(CCNC(=O)C2CCN(S(=O)(=O)c3c(C)nn(C)c3C)CC2)cc1,108,-7,/,/,-1.8,i,0.85
Cn1cccc1C(=O)NC(=O)CSc1nnc(C2CC2)n1-c1ccccc1,88,-2,50,97,-0.5,i,0.79
Cc1cc(-c2cc(-c3ccccc3)on2)nc(NC2CCCC2)n1,105,/,/,/,/,i,0.81
CCOc1c2ccc(C(=O)NCc3ccc(C)cc3)cc2nn1CC,95,-9,/,/,-1.6,i,0.79
CCOC(=O)Cn1nc(C)c2ccccc2c1=O,94,-4,/,/,-1.8,i,0.95
C/C(Cn1nnc([N+](=O)[O-])n1)=N\NC(=O)c1ccc(C)cc1,104,-9,/,/,-2.0,i,0.83
CC(C)n1cnc2c(=S)nc[nH]c21,106,/,/,/,/,i,1.1
CC(C)OC(=O)NCN1C(=O)C2C3C=CC(C3)C2C1=O (centres undefined),106,-6,-6,116,-2.4,i,0.99
COc1ccccc1N1CCN(C2CCN(C(=O)c3ccc(F)cc3)CC2)CC1,103,-7,0,95,-0.4,i,0.98
CC1CCN(Cc2nnnn2-c2cccc([N+](=O)[O-])c2)CC1,101,-2,/,/,-0.3,i,0.94
CN1CCC(N2CCN(c3cccc(C(F)(F)F)c3)CC2)CC1,79,-2,19,105,-1.9,i,0.71
CCc1ccc(NC(=O)c2onc(C)c2Cl)cc1,104,-4,/,/,0.6,i,0.95
COc1cccc(/C=C2\C(=O)N(c3cccc(C)c3)C(=O)c3ccccc32)c1,95,-4,51,149,-0.4,i,0.98
O=C(NC1=NCCS1)Nc1ccccc1,104,7,-50,144,0.2,i,0.92
CCn1cc(C(=O)O)c(=O)c2cnc(N3CCN(C(=S)Nc4ccccc4C(F)(F)F)CC3)nc21,94,/,/,/,/,i,0.92
Cn1c(=O)[nH]c(=O)c2c1nc(N(CCO)Cc1ccccc1)n2Cc1ccccc1Cl,90,-12,/,/,1.4,i,0.83
COc1ccc(S(=O)(=O)N(C)CC(=O)Nc2c(F)cccc2F)cc1,115,-10,-8,168,-0.8,i,0.88
O=C(COC(=O)/C=C/c1cccc(F)c1)NNC(=O)c1ccccc1,102,-6,20,56,/,i,0.9
CCCC[C@@H]1CNC(=S)N1CCc1cccc2ccccc12,104,-8,/,/,/,i,0.81
CCN(C(=O)c1ccco1)c1nnc(-c2ccc(OC)cc2)s1,97,0,0,140,-0.4,i,1

# Single records (already shown):
# COc1ccc(S(=O)(=O)N(C)CC(=O)Nc2c(F)cccc2F)cc1 is listed with RGS16-Gao HTS = 115; PKD1 kinase inh = -10; INS promoter inh = -8; INS promoter inh cell count = 168; GALR2 agonist = -0.8; HSV replic up = i; HSV replic up primary fold = 0.88
# COc1ccccc1N1CCN(C2CCN(C(=O)c3ccc(F)cc3)CC2)CC1 is listed with RGS16-Gao HTS = 103; PKD1 kinase inh = -7; INS promoter inh = 0; INS promoter inh cell count = 95; GALR2 agonist = -0.4; HSV replic up = i; HSV replic up primary fold = 0.98

# Results in HSV replic up primary fold and INS promoter inh cell count (5 entries from above):
Structure	HSV replic up primary fold	INS promoter inh cell count
COc1ccccc1N1CCN(C2CCN(C(=O)c3ccc(F)cc3)CC2)CC1	0.98	95
CC1CCN(Cc2nnnn2-c2cccc([N+](=O)[O-])c2)CC1	0.94	/
CN1CCC(N2CCN(c3cccc(C(F)(F)F)c3)CC2)CC1	0.71	105
CCc1ccc(NC(=O)c2onc(C)c2Cl)cc1	0.95	/
COc1cccc(/C=C2\C(=O)N(c3cccc(C)c3)C(=O)c3ccccc32)c1	0.98	149

# Assay outcomes from PubChem.
